Screens from PubChem BioAssay.
gsp antagonist – gsp mutant antagonism; gsp-mutant cells, cAMP HTRF, 30 min; control for the full effect not named in the record; Potency, µM (highest dose often 76.9 µM), for inactives: top-dose activity change, negative = inhibition, most hits filed as inhibitors; 340,000 tested, 0.4% active; active = falling curve of any shape with a large fitted effect; inconclusive = falling curve, mostly with a smaller effect; inactive = flat or rising curve; cell line not stated here;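 further: intracellular cAMP measured with PDE inhibitor Ro 20-1724 present during compound exposure; potency means the concentration at half of the fitted maximal effect; on the % scale 0 is the no-effect control and ±100 the full control effect; nearly all actives have a fitted effect of over 65% in size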
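Cells, 2000/well, grown 16–24 h in DMEM 10% FBS with 0.5 mg/ml G418, then compounds plus […] (300 uM addition stock), 30 min at 37C. cAMP read by HTRF (cAMP-d2 and anti-cAMP antibody-K in lysis buffer) after 30 min RT.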
Sfp PPTase inh – inhibitors of Bacillus subtilis Sfp phosphopantetheinyl transferase | Biochemical Sfp PPTase activity, qHTS | Potency, µM, for inactives: max response, negative = inhibition, most hits filed as inhibitors | 310,000 tested, 3.5% active; active means well fitted inhibition curve with a large enough effect; inconclusive means small, poorly fitted or top-dose-only effect, or another doubt; inactive means no such curve, though single readings can be large or run the other way;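 further: the enzyme is Sfp with the accession as filed and its product quenches rhodamine fluorescence; potency means the concentration at half of the fitted maximal effect; 0% = enzyme reaction without inhibitor and -100% = no enzyme wells; top concentration of the series not given in the record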
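Fluorescence-quenching assay with 15 nM Sfp, 5 uM rhodamine-CoA and 12.5 uM BHQ-2-labelled ybbR peptide in pH 7.6 Hepes/MgCl2 buffer. Enzyme was pre-incubated with compound for 15 min at room temperature. Rate was taken from the 30-min fluorescence change (525/598 nm).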
D2 PAM – positive allosteric modulators of human D2 dopamine receptor. AID 624464. DiscoveRx D2 beta-arrestin cells, luminescence, 90 min; 100% = 57 uM dopamine signal. P14416. 360,000 tested, 0.23% active. potentiation, % (concentration not given with the values); active = potentiation of 50% or more; inconclusive = 30% to 50%; inactive = 30% or less;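 further: compound concentration not given in the record; tested on top of an EC20 dose of dopamine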
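D2 cells co-treated with compound plus 50 nM dopamine (EC20) for 90 min at 37 deg C to detect potentiation. Beta-arrestin recruitment was read as enzyme-fragment luminescence after 1 h at ambient temperature. Full response was set by 57 uM dopamine.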
Menin-MLL FL inh – inhibitors of human menin-MLL interaction, wild-type MLL peptide; 290,000 tested, under 10 active; Fluorescence polarization, fluorescein-MLL peptide displacement from menin; FP activity change, % at 61.4 µM; AID 1766; inconclusive = falling polarisation curve, or a change in total fluorescence; inactive = total fluorescence flat and polarisation flat or rising; no compound was filed as active; the % refers to the polarisation; negative = inhibition;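 further: % of control where 0% means no effect; inhibitors lower the polarisation; unlabelled MLL peptide was the positive control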
ClpP mod – qHTS Assay for Activators of ClpP | Potency, µM (highest dose often 57.5 µM), for the others: at the top dose activity change, negative = active | AID 651965, 2013 | 340,000 tested, 1.9% active | ATP-dependent Clp protease proteolytic subunit (Bacillus subtilis (strain 168)), P80244 | purified B. subtilis ClpP, FRET peptide cleavage, 20 min; active = well fitted falling curve with a large enough effect; inconclusive = small, poorly fitted or top-dose-only effect; inactive = no such curve, though single readings can be large or run the other way; further: potency means the concentration at half of the fitted maximal effect; the source files actives as falling curves though it sought activators and does not explain the sign; nearly all actives have a fitted effect of over 65% in size; many hits overshoot -100%
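ClpP 10 microg/mL final, pH 8 Tris/KCl buffer with BSA, glycerol, Tween-20; compound pinned in; FRET-FV substrate; RT 20 min; Ex320/Em430; ΔFRET vs ADEP 5.8 microM, DMSO, no enzyme.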
TRPV1 potentiator – enhances activation of the human vanilloid receptor TRPV1. Q8NER1. TRPV1-expressing cells, Fluo-8 calcium influx, capsaicin EC20 potentiation; host cell line not named in the record; control for the full effect not named in the record. potentiation, % at 8.33 µM. 320,000 tested, 0.02% active. AID 540277; active means potentiation above 80%; inconclusive means 30% to 80%; inactive means below 30%; further: 0% is about no effect
Target sequence (Q8NER1 whole entry, looked up): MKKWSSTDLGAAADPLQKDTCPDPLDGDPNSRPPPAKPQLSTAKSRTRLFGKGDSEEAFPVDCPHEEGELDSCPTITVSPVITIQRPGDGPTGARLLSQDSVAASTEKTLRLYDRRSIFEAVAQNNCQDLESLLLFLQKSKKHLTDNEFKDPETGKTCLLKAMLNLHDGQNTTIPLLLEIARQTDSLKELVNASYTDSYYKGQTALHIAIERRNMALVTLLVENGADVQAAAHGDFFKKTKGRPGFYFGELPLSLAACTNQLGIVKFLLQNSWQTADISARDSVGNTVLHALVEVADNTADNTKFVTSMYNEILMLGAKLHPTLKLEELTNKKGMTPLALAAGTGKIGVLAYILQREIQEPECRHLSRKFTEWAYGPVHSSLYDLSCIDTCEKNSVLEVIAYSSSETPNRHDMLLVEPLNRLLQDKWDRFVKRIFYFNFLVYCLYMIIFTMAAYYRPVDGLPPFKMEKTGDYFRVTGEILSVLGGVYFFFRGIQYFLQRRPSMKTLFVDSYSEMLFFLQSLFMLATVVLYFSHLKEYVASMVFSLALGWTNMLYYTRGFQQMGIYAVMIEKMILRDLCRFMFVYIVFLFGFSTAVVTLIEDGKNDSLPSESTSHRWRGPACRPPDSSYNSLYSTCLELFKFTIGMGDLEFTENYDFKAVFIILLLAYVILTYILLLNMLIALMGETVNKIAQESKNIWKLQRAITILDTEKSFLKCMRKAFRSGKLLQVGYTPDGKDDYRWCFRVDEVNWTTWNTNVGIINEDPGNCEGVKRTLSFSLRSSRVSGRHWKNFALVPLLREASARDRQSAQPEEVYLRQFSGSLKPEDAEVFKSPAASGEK
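TRPV1-expressing cells were cultured overnight at 35.5C and loaded with Fluo-8 calcium dye for 40 to 90 min at room temperature. After a 10 s baseline, compound was added and calcium influx was read kinetically for 3 min (ex 480/em 520 nm).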
gsp agonist – agonists of gsp mutant (McCune-Albright syndrome); gsp mutant cells, cAMP HTRF, 30 min; control for the full effect not named in the record; Potency, µM (series often up to 76.9 µM), for the others: top-dose activation (cAMP increase), actives largely listed as activators; 340,000 tested, 0.13% active; AID 624287; active = well fitted activation curve with a large enough effect; inconclusive = small, poorly fitted or top-dose-only effect, or another doubt; inactive = no such curve, though single readings can be large or run the other way; cell line not stated here;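 further: phosphodiesterase inhibitor Ro 20-1724 added with compounds to block cAMP breakdown; potency means the concentration at half of the fitted maximal effect; nearly all actives have a fitted effect of over 60% in size; about a fifth of the inactives were tested at one dose only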
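Cells stably selected in G418 were plated at 2000/well, grown 16-24 hr, then given compounds in DMSO with the PDE inhibitor […] (300 uM solution added) for 30 min at 37C; cAMP was read by HTRF.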
* marks the source's active call; other numbers are inactive results; ? = inconclusive; . = no result given. An excerpt, so the mix of outcomes need not match the whole.

Values in the order – ClpP mod, Sfp PPTase inh, gsp agonist, gsp antagonist, Menin-MLL FL inh, D2 PAM, TRPV1 potentiator
- O=C1NC2C(=CC(O)C(O)C2O)c2cc3c(cc21)OCO3 (centres undefined)
  ?, ., -6.0%, -16.2%, ., -12.0, .
- CCCC[N+]12CCC(CC1)C(C(O)(c1ccccc1)c1ccccc1)C2 (centres undefined)
  ., 7.0%, -23.9%, -5.3%, 1.0, -9.1, 12.6
- CCOc1ccc(N2C(=O)/C(=C/c3ccco3)C(=O)NC2=S)cc1
  -1.5%, 35.5µM*, -37.3%, -3.1%, ?, -9.8, -1.9
- CC(C)C/C(=N/O)c1cn(C)c2ccccc12
  ., 5.9%, -19.0%, 6.5%, -0.3, -3.6, 2.8
- COC(=O)C1=C(c2ccc(F)cc2OCc2ccccc2)C[C@@H]2CC[C@H]1N2C(=O)NCCc1ccc(F)cc1
  -0.5%, ., 12.9%, ?, ., -16.4, 0.8
- Cc1ncoc1C(=O)NCC1=C(c2ccc(S(C)(=O)=O)cc2)C[C@@H]2CC[C@H]1N2Cc1ccco1
  -0.3%, ., -25.6%, ., ., 2.0, .
- Fc1ccccc1CNCCc1c[nH]c2ccccc12
  ., -11.8%, -4.5%, 15.5%, 2.0, -18.9, -2.5
- Cc1ccc(OC(=O)N(C)C[C@H]2OCc3cnnn3CCCC(=O)N([C@H](C)CO)C[C@@H]2C)cc1
  -2.7%, ., ?, ., ., -8.0, .

Quoted at random: 2 compounds from above.
Values in the order – ClpP mod, Sfp PPTase inh, gsp agonist, gsp antagonist, Menin-MLL FL inh, D2 PAM, TRPV1 potentiator
- CC(C)C/C(=N/O)c1cn(C)c2ccccc12
  ., 5.9%, -19.0%, 6.5%, -0.3, -3.6, 2.8
- Cc1ccc(OC(=O)N(C)C[C@H]2OCc3cnnn3CCCC(=O)N([C@H](C)CO)C[C@@H]2C)cc1
  -2.7%, ., ?, ., ., -8.0, .

Laid out differently: results already given
COC(=O)C1=C(c2ccc(F)cc2OCc2ccccc2)C[C@@H]2CC[C@H]1N2C(=O)NCCc1ccc(F)cc1
  ClpP mod = -0.5% | Sfp PPTase inh = . | gsp agonist = 12.9% | gsp antagonist = ? | Menin-MLL FL inh = . | D2 PAM = -16.4 | TRPV1 potentiator = 0.8
CC(C)C/C(=N/O)c1cn(C)c2ccccc12
  ClpP mod = . | Sfp PPTase inh = 5.9% | gsp agonist = -19.0% | gsp antagonist = 6.5% | Menin-MLL FL inh = -0.3 | D2 PAM = -3.6 | TRPV1 potentiator = 2.8

Four entries from above, ordered by formula weight, rising:
Values in the order – ClpP mod, Sfp PPTase inh, gsp agonist, gsp antagonist, Menin-MLL FL inh, D2 PAM, TRPV1 potentiator
- O=C1NC2C(=CC(O)C(O)C2O)c2cc3c(cc21)OCO3 (centres undefined)
  ?, ., -6.0%, -16.2%, ., -12.0, .
- CCCC[N+]12CCC(CC1)C(C(O)(c1ccccc1)c1ccccc1)C2 (centres undefined)
  ., 7.0%, -23.9%, -5.3%, 1.0, -9.1, 12.6
- Cc1ncoc1C(=O)NCC1=C(c2ccc(S(C)(=O)=O)cc2)C[C@@H]2CC[C@H]1N2Cc1ccco1
  -0.3%, ., -25.6%, ., ., 2.0, .
- COC(=O)C1=C(c2ccc(F)cc2OCc2ccccc2)C[C@@H]2CC[C@H]1N2C(=O)NCCc1ccc(F)cc1
  -0.5%, ., 12.9%, ?, ., -16.4, 0.8
